Compound activity: PubChem, Johns Hopkins Ion Channel Center
KCNQ2 enhance = enhances the rat KCNQ2 potassium channel | 310,000 tested, 0.54% active | O88943 | CHO-K1 KCNQ2, FluxOR thallium flux fluorescence; stronger effect = higher value | B-score at 10 µM | AID 2239;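 active means fluorescence ratio B-score at least 3 SD of library B-scores, with initial fluorescence B-score within 3 SD, cut at about 5.3 in these data; same plate scores as AID 2156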;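 further: B-score of peak minus minimum over baseline fluorescence ratio after K+ and Tl+ stimulus; positive B-score means potentiation of KCNQ2 with more thallium influx and brighter signal; only the inactives scoring about 0 or higher are listed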
Target sequence (O88943 whole entry, looked up): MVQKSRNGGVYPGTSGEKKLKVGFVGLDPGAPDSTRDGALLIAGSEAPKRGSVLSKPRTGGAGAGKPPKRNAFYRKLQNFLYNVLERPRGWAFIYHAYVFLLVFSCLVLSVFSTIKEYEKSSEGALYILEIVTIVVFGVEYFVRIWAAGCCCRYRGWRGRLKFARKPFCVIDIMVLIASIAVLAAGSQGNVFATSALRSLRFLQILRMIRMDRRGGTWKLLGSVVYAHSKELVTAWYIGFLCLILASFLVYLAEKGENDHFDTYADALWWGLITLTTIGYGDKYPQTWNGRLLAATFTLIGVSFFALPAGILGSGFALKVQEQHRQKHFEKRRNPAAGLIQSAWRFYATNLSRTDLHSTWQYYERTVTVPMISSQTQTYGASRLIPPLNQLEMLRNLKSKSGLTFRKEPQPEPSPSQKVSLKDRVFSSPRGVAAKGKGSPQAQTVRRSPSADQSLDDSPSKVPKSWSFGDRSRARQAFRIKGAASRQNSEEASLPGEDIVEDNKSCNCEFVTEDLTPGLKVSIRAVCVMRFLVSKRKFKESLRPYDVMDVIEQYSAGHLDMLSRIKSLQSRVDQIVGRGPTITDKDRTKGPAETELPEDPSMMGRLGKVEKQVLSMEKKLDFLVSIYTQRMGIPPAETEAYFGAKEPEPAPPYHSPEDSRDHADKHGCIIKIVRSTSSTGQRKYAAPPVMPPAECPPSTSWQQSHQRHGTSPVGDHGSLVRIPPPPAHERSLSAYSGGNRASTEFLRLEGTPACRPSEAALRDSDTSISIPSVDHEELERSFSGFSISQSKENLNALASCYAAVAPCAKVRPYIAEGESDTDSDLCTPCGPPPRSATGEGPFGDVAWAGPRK
KCNQ2 enhance baseline = second read-out of KCNQ2 enhance, no call of its own (marks repeat the call); B-score; compound at 10 µM; measured here: initial fluorescence intensity artifact check;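 brightness before thallium and not channel activity; 0 = typical well and far values either way flag optical interference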
* = called active by the depositor.

SMILES	KCNQ2 enhance	KCNQ2 enhance baseline
CC(C)(C)OC(=O)CC12CCCCC1NC(=O)O2 (centres undefined)	1.3	-1.6
CC(C)c1ccc(OCC(=O)N2CCN(C(=O)c3ccco3)CC2)cc1	0.96	0.08
COc1ccc(OCC(=O)NNC(=O)c2ccc(-c3ccccc3)cc2)cc1	0.4	0
CC1(c2nnc(-c3ccc(Cl)cc3)o2)CC(c2ccc([N+](=O)[O-])cc2)=NO1 (centres undefined)	2.2	-1.4
O=C(/C=C/c1ccco1)NCc1ccccn1	0.88	-0.26
Cc1cc(C(=O)N2CCCC(N3CCN(c4cccc(C(F)(F)F)c4)CC3)C2)n[nH]1 (centres undefined)	0.63	-0.55
Cc1cnc(C(=O)OCC(=O)Nc2ccc(Cl)cc2Cl)cn1	0.08	0.81
Cc1ccc(-c2csc(NC(=O)CN3CCOCC3)n2)cc1C	0.31	-1.4
O=C(c1cc(-c2cccc(Cl)c2)on1)N1CCc2ccccc2C1	0.36	-0.39
CC(=O)c1cnn(-c2c(Cl)cc(Cl)cc2Cl)c1C	0.12	-0.43
CC(=O)Nc1ccc(-c2csc(NNC(=O)c3ccc(C)cc3)n2)cc1	0.08	1
Cc1ccc(C(=O)/C=C/N(C)C)o1	0.22	-0.72
N/C(=N\OC(=O)c1ccc2ccccc2c1)c1ccc(Br)cc1	0.7	-0.66
Cc1ccc(C(CC(=O)N2CCCCC2)c2ccccc2)c(O)c1C (centres undefined)	0.26	-1
O=C(NCc1ccncc1)C(=O)NCC(c1ccco1)N1CCN(c2ccccc2F)CC1 (centres undefined)	0.72	0.22
COc1cc(C2C(C(=O)OC(C)C)=C(C)Nc3[nH]c(=O)[nH]c(=O)c32)ccc1O (centres undefined)	1.1	0.85
O=C(CN1C(=O)C2CC=CCC2C1=O)Nc1ccc(Br)cc1 (centres undefined)	0.14	0.08
CC1CCc2c(sc(NC(=O)C3CCCO3)c2C#N)C1 (centres undefined)	2.3	0.01
Cc1cc(NS(=O)(=O)c2ccc(NC(=S)NC(=O)c3ccncc3)cc2)no1	1.8	0.81
COCCCNC(=O)Cn1cnc2sc(C)c(S(=O)(=O)N3CC(C)CC(C)C3)c2c1=O (centres undefined)	0.09	-0.46
Cc1ccc(N2CC(C)Cn3c2nc2c3c(=O)[nH]c(=O)n2C)cc1C (centres undefined)	0.3	-1.2
O=C(Cc1cccs1)NCC1CCCO1 (centres undefined)	0.02	-0.25
CC1=C(C(=O)Nc2cccc(C(=O)NCc3ccc(F)cc3)c2)SCCO1	1.8	-0.26
Cc1ccc(OCc2cc(C(=O)N3CC4C[C@@H]5CC3C[C@H](C4)C5)no2)cc1C	0.06	0.8
COc1ccc(Br)cc1/C=N/NC(=O)c1cccnc1	1.9	0.67
CCCCC(O)(c1ccc(F)cc1)C(CN1CCOCC1)c1ccc(Cl)cc1 (centres undefined)	0.68	0.16
Nn1c(SCCOc2ccccc2)nnc1-c1cccnc1	0.59	1.2
CCOC(=O)C1CCCCN1Cc1cccc(F)c1 (centres undefined)	0.28	1.1
COc1ccc(CCNC(=O)COc2cc(C)cc3oc(=O)cc(C)c23)cc1	0.13	0.51
CC1(c2ccccc2)NC(=O)N(CC(=O)NNC(=O)c2ccccc2)C1=O (centres undefined)	0.7	1.6
O=C(C1=NN[C@@H]2C(=O)N(c3cccc(F)c3)C(=O)[C@H]12)c1cnccn1	1.1	-0.73
CC(C)CN1CCNC(=O)C1CC(=O)NCc1cnn(-c2cccc(F)c2)c1 (centres undefined)	0.08	0.68
O=C(Nc1ccccc1C(F)(F)F)c1cnccn1	1.1	0.53
O=C(O)CNc1nc(-c2ccccc2)nc2c1oc1ccccc12	0.02	2
COC(=O)C1=C(C(=O)OC)[C@@H]2Nc3ccccc3[C@@]23C[C@@H](C(=O)OC)N(C(=O)CC(C)C)C3=N1	1.6	-0.58
CC(C)NC(=O)[C@@H]1C[C@@]1(C)[C@@H](NC(=O)OCc1ccccc1)c1ccccc1	0.76	-0.1
CCOc1ccc2nc(NC(=O)c3ccco3)sc2c1	1.9	-1.4
CCOc1ccc(N(C(=O)c2snc(C(N)=O)c2N)C(C(=O)NCC2CCCO2)c2ccc(C)o2)cc1 (centres undefined)	0.39	0.27
CCOC(=O)N1CCN(C(=O)CCC(=O)N2CCOc3ccc(C)cc32)CC1	1	-0.64
Cn1c(=O)c2c(nc(SCC(=O)NCC3CCCO3)n2Cc2ccc(F)cc2)n(C)c1=O (centres undefined)	0.5	-0.03
Cc1ccc(S(=O)(=O)N(C)Cc2ccc(-c3nnco3)cc2)cc1	0.3	0.06
Cc1cc(C)c(NC(=O)c2ccc3c(c2)CCN3S(C)(=O)=O)c(C)c1	2.8	-0.65
CC(=O)N(CCCN(C)C)Cc1ccccn1	1.6	-1.6
Cc1ccc(NC(=S)N=Nc2c(O)n(C)c3ccc(S(=O)(=O)N4CCOCC4)cc23)cc1	0.1	0.87
COc1ccc(-c2c(C(=O)O)c(-c3ccccc3)cn2C)cc1	0.42	-0.06

2 records picked at random from the list so far:
SMILES	KCNQ2 enhance	KCNQ2 enhance baseline
CC(C)CN1CCNC(=O)C1CC(=O)NCc1cnn(-c2cccc(F)c2)c1 (centres undefined)	0.08	0.68
CC(C)NC(=O)[C@@H]1C[C@@]1(C)[C@@H](NC(=O)OCc1ccccc1)c1ccccc1	0.76	-0.1

The results go on:
SMILES	KCNQ2 enhance	KCNQ2 enhance baseline
O=C(NCc1ccccn1)Nc1cccc([N+](=O)[O-])c1	2	0.67
O=C(O)CN1C(=O)/C(=C\c2ccccc2OCc2ccc(Cl)cc2)SC1=S	0.87	-3
CCc1ccc(/C=C2\SC(N3CCCC3)=NC2=O)cc1	2.1	0.1
CC(C)CC(C(=O)NC(C)(C)C)N(CC1CCCO1)C(=O)c1snc(C(N)=O)c1N (centres undefined)	1.4	-0.13
Cc1ccc(-c2nc3c(c(=O)[nH]c(=O)n3Cc3ccccc3)n2C)s1	0.66	0.45
CC(CN1CCOCC1)OC(=O)COc1ccc(F)cc1 (centres undefined)	1.7	1.3
O=C(O)CCCNS(=O)(=O)Cc1ccccc1	0.21	0.15
Cc1ccc(Oc2nc(C(F)(F)F)nc3ccccc23)cc1	1	-1.5
CC(C)(C)N1CC(OC(N)=O)C1	1.5	-0.77
COc1cc(/C=C/C(=O)NCC(=O)N2CCC(N(C)CCN3CCOCC3)CC2)ccc1OC(C)C	1.2	-0.65
Cc1nc2ccccc2cc1C(=O)N/N=C/c1ccccc1[N+](=O)[O-]	0.84	-0.09
CCOC(=O)c1c(NC(=O)c2c(Br)cnn2CC)sc(C)c1C	0.46	0.39
COc1ccc(/C=C\c2onc(C)c2S(=O)(=O)N2CCC(C(=O)NCc3ccco3)CC2)cc1	0.29	-2
Cc1c(CC(=O)O)c(=O)oc2c(C)c3occ(-c4ccc(Br)cc4)c3cc12	1.6	0.02
O=C1c2ccccc2C(=O)N1c1ncn[nH]1	1.6	0.16

Structural class: the compounds so far with an aryl methoxy group
SMILES	KCNQ2 enhance	KCNQ2 enhance baseline
COc1ccc(OCC(=O)NNC(=O)c2ccc(-c3ccccc3)cc2)cc1	0.4	0
COc1cc(C2C(C(=O)OC(C)C)=C(C)Nc3[nH]c(=O)[nH]c(=O)c32)ccc1O (centres undefined)	1.1	0.85
COc1ccc(Br)cc1/C=N/NC(=O)c1cccnc1	1.9	0.67
COc1ccc(CCNC(=O)COc2cc(C)cc3oc(=O)cc(C)c23)cc1	0.13	0.51
COc1ccc(-c2c(C(=O)O)c(-c3ccccc3)cn2C)cc1	0.42	-0.06
COc1cc(/C=C/C(=O)NCC(=O)N2CCC(N(C)CCN3CCOCC3)CC2)ccc1OC(C)C	1.2	-0.65
COc1ccc(/C=C\c2onc(C)c2S(=O)(=O)N2CCC(C(=O)NCc3ccco3)CC2)cc1	0.29	-2

Individual results from the results shown.
In KCNQ2 enhance baseline, CC(C)(C)N1CC(OC(N)=O)C1 reads -0.77
In KCNQ2 enhance baseline, O=C1c2ccccc2C(=O)N1c1ncn[nH]1 reads 0.16
In KCNQ2 enhance, O=C(O)CCCNS(=O)(=O)Cc1ccccc1 reads 0.21
In KCNQ2 enhance, Cc1c(CC(=O)O)c(=O)oc2c(C)c3occ(-c4ccc(Br)cc4)c3cc12 reads 1.6
In KCNQ2 enhance, CC(C)CC(C(=O)NC(C)(C)C)N(CC1CCCO1)C(=O)c1snc(C(N)=O)c1N (centres undefined) reads 1.4

(cont.)
SMILES	KCNQ2 enhance	KCNQ2 enhance baseline
O=C(NCc1ccccc1)C(c1ccccc1)N(C(=O)c1csnn1)C1CCCC1 (centres undefined)	1.1	-0.56
CSc1ccc(S(=O)(=O)NCC(=O)OCC(=O)N(C)Cc2ccccc2)cc1[N+](=O)[O-]	0.83	-0.82
CCCC(=O)Nc1ccccc1NC(=O)c1cc(OC)c(OC)c(OC)c1	0.37	0.44
CC1(C)CC(NC(=O)c2ccccc2Cl)CC(C)(C)N1	1.4	0.83
CCOC(=O)c1nn(-c2ccccc2F)c(C)c1C(C)=O	0.02	-1.6
CC(C)Cc1cc(C(=O)Nc2sc3c(c2C#N)CCC3)no1	2.8	-0.87
COc1cc([N+](=O)[O-])ccc1NC(=O)NCc1ccco1	0.54	-2.4
Cc1nc(-c2ccc(S(=O)(=O)N3CCN(C(c4ccccc4)c4ccccc4)CC3)s2)cs1	0.91	0.06
CC(C)(C)N(NS(=O)(=O)c1ccc(F)cc1)c1ccccc1	0.39	-0.09
Cc1ccc(/C=N/NC(=O)c2cccc(S(=O)(=O)N3CCOCC3)c2)o1	1.6	-0.06
O=C(NCc1ccccc1)C1CCCN(S(=O)(=O)c2ccc(-n3cnnn3)cc2)C1 (centres undefined)	0.23	0.01
CCOCCCNC(=O)c1c(N)n(-c2ccc(S(N)(=O)=O)cc2)c2nc3ccccc3nc12	1	0.14
O=C(NCC1CC1)NC(=O)c1c(F)cccc1Cl	0.82	-0.34
COCCCN(C(=O)C(C)Oc1ccc(Br)cc1)c1c(N)n(Cc2ccccc2)c(=O)[nH]c1=O (centres undefined)	0.03	0.67
Nc1nc(COc2ccc(Cl)cc2)cs1	0.72	-0.83
Cc1cccc(-n2ncc3c2CCCC3NC(=O)CCN2CCCCO2)c1C (centres undefined)	2.6	-1.6
CCCOc1ccc(N2C(=O)CC(NCc3cccnc3)C2=O)cc1 (centres undefined)	0.09	-1.1
CCCOC(=O)c1c(NC(=O)C2C3C=CC(C3)C2C(=O)O)sc2c1CCC(C)C2 (centres undefined)	1.5	0.09
CC1(OC(=O)CCc2ccccc2)C(=O)C=C2C=C(c3ccc(C#N)cc3)N(CC3CC3)C=C2C1=O (centres undefined)	0.01	-0.55
C=C(C)C(=O)Nc1cccc(C2=NOC3(C2)C[C@H](C(N)=O)N(C(=O)CC#N)C3)c1 (some centres undefined)	0.32	2.2
CCS(=O)(=O)C1=NN2C(=N)/C(=C\c3ccc(OS(=O)(=O)c4ccccc4)cc3)C(=O)N=C2S1	4.5	-2.1
C/C(=N\NC(=S)NCCc1ccccc1)c1cccs1	0.6	0.53
Cc1ccnc(N/C=C(/NC(=O)c2ccccc2)C(=O)N/N=C\c2ccc(Cl)cc2)n1	0.19	-1.8
O=C(NC1CCCCC1)N1CCCCCC1	0.14	2
CCNc1ccc(C(=O)OCC(=O)N2c3ccccc3NC(=O)C2(C)C)cc1[N+](=O)[O-]	0.43	0.09
COc1ccc(C2C3=C(CCCC3=O)Nc3nc(C(F)(F)F)nn32)c(OC)c1OC (centres undefined)	0.59	-2.2
CCSc1c(-c2ccccc2)nc2c(C)cccc2c1C(=O)O	0.1	0.8
C/C(=N\NC(=O)C1CC1)c1ccc(C)c(C)c1	1.1	0.65
CCN(CC)C(=O)C(=O)c1cn(CC(=O)NCC2CCCO2)c2ccccc12 (centres undefined)	2.4	-0.04
CCN(CC(=O)Nc1ccccc1C(F)(F)F)C(=O)CCSc1ccc(F)cc1	0.45	-3.3
CSc1cccc(NC(=O)N2CCN(C)CC2)c1	0.01	-0.67
COc1ccc(OC)c(/C=C/C(=O)OCC(=O)Nc2ccc(Cl)c(S(=O)(=O)N(C)C)c2)c1	0.59	-0.69
Cc1cnc(C(=O)OC(C)C(=O)c2c(C)[nH]c3ccccc23)cn1 (centres undefined)	0.08	1.5
COCCCN1C(=O)c2ccc(C(=O)OCC(=O)N3CCN(c4ccccc4)CC3)cc2C1=O	0.11	1.3
CC1(C)CC2CC(C)(CN2C(=S)NC(=O)c2ccccc2Cl)C1 (centres undefined)	10*	-0.83*
O=C(Cn1cc([N+](=O)[O-])cn1)NCC1CCCO1 (centres undefined)	0.47	-0.67
Cc1ccc[n+](C(C)C(=O)c2ccc(Cl)cc2)c1 (centres undefined)	0.74	1.1
O=C(COC(=O)CNC(=O)c1ccc(F)cc1)Nc1cccc(S(=O)(=O)N2CCCC2)c1	0.35	-1.1
Nc1nc(SCCO)[nH]c(=O)c1NC(=O)c1ccc(Br)o1	0.56	-1.5
COc1cc(/C=N/n2cnnc2)ccc1OCC(=O)N1CCOCC1	1.1	-1.3
CC(C)CC(=O)NC(=S)Nc1nc(-c2cccc3ccccc23)cs1	8.4*	0.13*
CC(C)(C)c1ccc(C(=O)N2CCCN(c3ccc([N+](=O)[O-])cn3)CC2)cc1	0.01	-0.04
Cc1oc(S(=O)(=O)N2CCOCC2)cc1C(=O)Nc1ccc(F)cc1	1.1	0.03
Cn1c(CNC(=O)C(Cc2ccccc2)NC(=O)c2ccccc2)cc(=O)n(C)c1=O (centres undefined)	1.9	-1.8
Cc1ccc(C(=O)COC(=O)c2n[nH]c(=O)c3ccccc23)cc1	1	1.3
O=C(NNC(=S)NC(=O)c1ccc(Br)cc1)c1cccc([N+](=O)[O-])c1	7.6*	-0.15*
Cc1cc(C)n2nc(SCc3ncc(-c4ccccc4)o3)nc2n1	3.3	-0.02
Cc1nn2c(NCCN(C)C)c3c(nc2c1-c1ccccc1)CCCC3	6.1*	-2.2*
CCOc1cc(/C=N/NC(=O)c2nn(C)cc2Br)ccc1OCc1ccccc1Cl	3.6	0.93

A portion of the library, so the mix of outcomes need not match the whole.
